Assay outcomes deposited in PubChem BioAssay by Johns Hopkins Ion Channel Center.
KCNQ2 enhance: potentiators of rat KCNQ2 potassium channel; Potassium voltage-gated channel subfamily KQT member 2 (Rattus norvegicus), O88943; 0.54% of 310,000 active; AID 2239, 2010; B-score at 10 µM; CHO-K1 KCNQ2, FluxOR thallium flux fluorescence; hits give high values;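 active = fluorescence ratio B-score at least 3 SD of library B-scores, with initial fluorescence B-score within 3 SD, cut at about 5.3 in these data; same plate scores as AID 2156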;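 also: B-score of peak minus minimum over baseline fluorescence ratio after K+ and Tl+ stimulus; positive B-score means potentiation of KCNQ2 with more thallium influx and brighter signal; only the inactives scoring about 0 or higher are listed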
Target sequence (O88943 whole entry, looked up): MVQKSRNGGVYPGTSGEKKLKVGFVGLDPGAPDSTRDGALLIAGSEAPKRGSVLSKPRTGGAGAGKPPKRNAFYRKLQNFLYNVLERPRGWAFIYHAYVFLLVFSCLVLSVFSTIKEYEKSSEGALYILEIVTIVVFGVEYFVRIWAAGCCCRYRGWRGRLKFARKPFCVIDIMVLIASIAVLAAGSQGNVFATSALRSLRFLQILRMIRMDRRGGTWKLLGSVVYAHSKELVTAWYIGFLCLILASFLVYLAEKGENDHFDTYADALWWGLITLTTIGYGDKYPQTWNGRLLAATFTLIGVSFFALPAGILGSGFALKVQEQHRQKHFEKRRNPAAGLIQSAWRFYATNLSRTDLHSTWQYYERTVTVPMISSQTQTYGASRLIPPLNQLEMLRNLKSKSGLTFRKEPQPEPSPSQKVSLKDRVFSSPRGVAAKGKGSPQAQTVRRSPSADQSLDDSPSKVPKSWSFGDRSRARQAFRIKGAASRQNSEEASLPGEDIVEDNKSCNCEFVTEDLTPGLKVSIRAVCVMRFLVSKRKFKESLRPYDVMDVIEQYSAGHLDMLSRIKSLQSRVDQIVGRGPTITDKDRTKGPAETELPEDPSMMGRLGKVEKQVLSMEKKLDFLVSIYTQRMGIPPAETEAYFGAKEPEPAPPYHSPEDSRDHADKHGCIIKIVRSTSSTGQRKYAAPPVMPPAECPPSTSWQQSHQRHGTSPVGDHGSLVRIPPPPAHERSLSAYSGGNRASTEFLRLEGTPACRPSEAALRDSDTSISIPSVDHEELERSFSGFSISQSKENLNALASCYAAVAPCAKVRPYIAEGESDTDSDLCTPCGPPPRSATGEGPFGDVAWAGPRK
KCNQ2 enhance baseline: second read-out of KCNQ2 enhance, no call of its own (marks repeat the call); B-score; compound at 10 µM; measured here: initial fluorescence intensity artifact check;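 brightness before thallium and not channel activity; 0 = typical well and far values either way flag optical interference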
Starred values were filed as active, the others as inactive. Some of the compounds tested (hit frequency here may not be typical).

Start of the listing, in advance:
KCNQ2 enhance	KCNQ2 enhance baseline	SMILES
0.91	-1.6	COc1cc(C(=O)Nc2ccc3c(c2)N(C(=O)CCN(C)C)c2ccccc2CC3)cc(OC)c1OC
0.36	1.1	Cc1ccccc1NS(=O)(=O)c1cc(OCC(N)=O)c(C)cc1Cl
0.57	0	O=C(NC1CC(=O)c2sccc21)c1ccc(Cl)cc1Cl (stereo unspecified)
0.13	0.65	COc1cc(C(=O)NCc2ccc3c(c2)cc(C)n3C)cc(OC)c1OC
1.1	-0.2	O=C(COC(=O)c1ccccc1)NCc1ccco1

The list itself, from the start:
KCNQ2 enhance	KCNQ2 enhance baseline	SMILES
0.91	-1.6	COc1cc(C(=O)Nc2ccc3c(c2)N(C(=O)CCN(C)C)c2ccccc2CC3)cc(OC)c1OC
0.36	1.1	Cc1ccccc1NS(=O)(=O)c1cc(OCC(N)=O)c(C)cc1Cl
0.57	0	O=C(NC1CC(=O)c2sccc21)c1ccc(Cl)cc1Cl (stereo unspecified)
0.13	0.65	COc1cc(C(=O)NCc2ccc3c(c2)cc(C)n3C)cc(OC)c1OC
1.1	-0.2	O=C(COC(=O)c1ccccc1)NCc1ccco1
1.5	2.1	COc1ccccc1C(=O)NCC(C)(C)CN=C1NS(=O)(=O)c2ccccc21
0.37	-0.8	Cc1cc(C)c(-c2csc(NC(=O)CCCc3nc4ccccc4c(=O)[nH]3)n2)c(C)c1
1.9	0.32	CC(CC(=O)O)C(=O)c1ccc(Cl)c([N+](=O)[O-])c1 (stereo unspecified)
0.64	-0.11	CCCCCCCCC(=O)O
0.28	-2.5	O=C(COC(=O)c1cnccn1)c1ccccc1
0.12	-0.7	COc1ccc(S(=O)(=O)N[C@@H](CC(C)C)C(=O)O)cc1
1.3	0.47	COCCNC(=O)NC(=O)COC(=O)c1ccc2[nH]c3c(c2c1)CCCC3
2.5	-0.13	CC(C)(C)SCCNS(=O)(=O)c1ccc(C#N)cc1
0.01	-0.93	Cc1ccc(NC(=O)NN2CCN(C)CC2)cc1C
0.04	0.75	COc1ccc2c(C)c(Cc3ccccc3)c(=O)oc2c1OC
0.02	-0.37	C#CCOCCOCCOCCNc1nc(N2CCN(C(=O)[C@H](CCCCN)n3cc(C(N)[C@H](C)CC)nn3)CC2)nc(N2CCN(C(=O)[C@H](CCC(=O)O)n3cc(C(N)[C@H](C)CC)nn3)CC2)n1 (stereo partly specified)
1.2	1	Cc1cccc(NC2=NC(=S)N(CC#N)C23CCCCC3)c1
0.08	-0.37	C=CCCOc1ccccc1C(N)=O
0.14	0.32	COc1ccc(-c2nc(C#N)c(NCC3CCCO3)o2)cc1 (stereo unspecified)
0.53	0.72	COc1cc(C(=O)N(CCc2ccccc2)C2CC3CCC(C2)N3C)cc(OC)c1OC (stereo unspecified)
0.15	-0.32	CC(C)c1onc(C(=O)NCc2ccccn2)c1[N+](=O)[O-]
0.52	-1.8	Cc1nn(-c2ccccc2)c(C)c1NC(=O)COC(=O)c1ccc(S(=O)(=O)C(F)F)cc1
0.05	0.03	Cc1ccc(OCC(=O)Sc2ccc(C)cc2)cc1
1.4	0.17	CCS(=O)(=O)N1CCC(NC(=O)c2cc(OC)cc(OC)c2)CC1

Full records, quoted from the list. Order of screens: KCNQ2 enhance	KCNQ2 enhance baseline
Profile of `Cc1cccc(NC2=NC(=S)N(CC#N)C23CCCCC3)c1` = 1.2	1
Profile of `Cc1nn(-c2ccccc2)c(C)c1NC(=O)COC(=O)c1ccc(S(=O)(=O)C(F)F)cc1` = 0.52	-1.8

(cont.)
KCNQ2 enhance	KCNQ2 enhance baseline	SMILES
0.21	-0.05	CC(CCCC(C)(C)O)NCCO (stereo unspecified)
0.08	-0.13	Cc1csc(NC(=O)c2c(-c3ccccc3)noc2C)n1
0.13	-0.11	O=C(NC(=S)NNC(=O)c1cnccn1)c1ccc(Cl)cc1
0.73	0.01	CC1=C(C(=O)OC(C)C)C(c2cccc([N+](=O)[O-])c2)n2c(cc(=O)[nH]c2=S)N1 (stereo unspecified)
1.1	-0.35	S=c1[nH]nc(-c2cccnc2)n1/N=C/c1cccs1
0.02	-0.9	CCC(=O)Nc1cc(C(=O)O)ccc1Sc1ccccc1
0.53	0.31	CCn1cnc2c1c(=O)n(CC(=O)Nc1ccc(C(N)=O)cc1)c(=O)n2Cc1ccccc1
0.41	-0.86	CCOC(=O)N1CCC(NC(=O)c2ccc(CS(=O)(=O)c3ccc(OC)cc3)o2)CC1

Some of these compounds in order of their number in KCNQ2 enhance baseline, largest number first:
KCNQ2 enhance	KCNQ2 enhance baseline	SMILES
0.53	0.31	CCn1cnc2c1c(=O)n(CC(=O)Nc1ccc(C(N)=O)cc1)c(=O)n2Cc1ccccc1
1.1	-0.35	S=c1[nH]nc(-c2cccnc2)n1/N=C/c1cccs1
0.02	-0.9	CCC(=O)Nc1cc(C(=O)O)ccc1Sc1ccccc1

Additional results:
KCNQ2 enhance	KCNQ2 enhance baseline	SMILES
0.51	-1.8	COCC1CCN(Cc2cn[nH]c2-c2cc3ccccc3o2)C1 (stereo unspecified)
2.6	-0.79	O=C(NC(=O)N1CCCCCC1)c1ccccc1
0.64	0.6	Cc1cc(CNC(=O)C2(C(F)(F)F)CC(CCCO)CCCO2)nn1C (stereo unspecified)
1.4	-0.89	O=C(NCCSC1CCCCC1)c1ccccc1
0.01	1.6	CCN(CC)CCNC(=S)Nc1ccc2nc3n(c(=O)c2c1)CCCCC3
0.33	-0.47	CCCN(CCC)S(=O)(=O)c1ccc(N2CCCC2=O)c([N+](=O)[O-])c1
0.33	-0.17	COc1ccc(-n2cc(-c3ccc(Cl)cc3)[nH]c2=S)cc1
0.07	-0.31	COc1ccc(S(=O)(=O)N(CC(=O)NCc2ccco2)c2ccccc2)cc1OC
0.7	0.97	N#Cc1ccc(C(=O)Nc2nnc(-c3ccco3)o2)cc1
1.3	-0.17	O=C1NN(c2ccc(Br)cc2)C(=O)/C1=C\c1ccc(O)cc1O
0.04	0.85	COc1ccccc1C(=O)N/N=C/c1ccc(Cl)s1
0.33	-0.44	COc1ccc(-c2cc(C(=O)Nc3c(C)nn(Cc4ccc(Cl)cc4)c3C)no2)cc1
1.6	-0.49	CN1CCC2(CC1)NC(=O)NC2=O
0.02	0	COc1ccc(NC(=O)c2cnc(NS(=O)(=O)c3ccccc3)nc2)cc1
0.22	-0.01	Cc1ccc(NC(=O)C(=O)NCc2ccco2)c(C)c1
0.74	1.1	O=C(O)c1ccc(COc2ccc(Cl)cc2)o1
0.04	0.06	Cc1cccc(C)c1NC(=O)C(NC=O)c1ccc(Cl)cc1 (stereo unspecified)
0.22	0.13	COC(=O)c1ccc(/C=N/NC(=O)CC(=O)NC2CCCCC2)cc1
1.4	-0.2	O=C1CCC(=O)N1OCCCOc1ccccc1
0.97	-0.79	Cc1sc(NC(=O)CSc2nnc(N)s2)c(C#N)c1C
0.24	-0.16	N=c1ccn2c(n1)O[C@H]1[C@H](O)[C@@H](CO)O[C@H]12
1.9	0.61	CC(=O)Nc1ccc(NC(=O)C(C)OC(=O)C(C)SCC(=O)Nc2ccc(F)cc2)cc1 (stereo unspecified)
0.47	-0.24	CC1CCC2C(=O)N(c3ccccc3OC(=O)c3ccccc3)C(=O)C2C1 (stereo unspecified)
0.74	0.71	Cc1ccccc1-n1ccnc1SCC(=O)O
0.04	0	Cc1cnc(C(=O)Nc2nc(-c3ccccc3)cs2)cn1
0.52	0.03	CC1CN(c2oc(-c3cccs3)nc2C#N)CC(C)O1 (stereo unspecified)
1.7	-2.6	CCSc1nnc2c3cc(CC)ccc3n(C)c2n1
0.07	0.92	CNC(=O)C(Sc1nc(C)nc2c1oc1ccccc12)C(C)=O (stereo unspecified)
1.8	-2.8	CCCn1c(SCC(=O)Nc2cc(Cl)ccc2OC)n[nH]c1=O
1.1	-0.17	COc1ccc(NC(=O)CSc2ccccn2)c([N+](=O)[O-])c1
0.42	0.91	NC(=O)Nc1ccc(F)cc1
0.04	-0.06	CCN(CC)S(=O)(=O)c1ccc2c(c1)c(=O)c(C(=O)NCc1cccs1)cn2C
0.14	-0.94	CCNc1nc2c(c(=O)[nH]c(=O)n2C)n1CCCc1ccccc1
0.83	0.27	COCCNCCCOc1ccc(Br)cc1Cl
0.71	-2.4	CCOC(=O)C1(C)NC(c2cc(OC)c(OC)c(OC)c2)C2C(=O)N(CC)C(=O)C21 (stereo unspecified)
1.3	-0.78	O=C(NCc1cccc2[nH]ccc12)C1CCC(=O)N(CCc2ccccc2)C1 (stereo unspecified)
0.08	-3.2	COc1cc(CC(=O)OCc2cccc([N+](=O)[O-])c2)cc(OC)c1OC
0.75	0.1	Cc1cc(C(=O)CCl)c(C)n1-c1ccon1
0.83	0.45	Cc1[nH]c(C(=O)N/N=C/c2ccc(N(C)C)cc2)c(C)c1C(=O)N/N=C/c1ccc(N(C)C)cc1
0.06	0.25	CC1(c2ccccc2Cl)NC(=O)N(CC(=O)N2CCN(S(=O)(=O)c3ccccc3)CC2)C1=O (stereo unspecified)
0.09	-1.4	CCn1ncc(Br)c1C(=O)Nc1cc(C)on1
2.2	-0.72	Cc1cc(C)c2sc(N(CCN(C)C)C(=O)CCS(=O)(=O)c3ccccc3)nc2c1
0.12	-0.08	O=C(CSc1nnc(CNC(=O)c2ccco2)o1)Nc1ccccc1
0.52	-0.68	Nc1ccccc1SCCS(=O)(=O)c1ccc(Cl)cc1
1	0.02	CC(=O)c1c(NCCc2ccccc2)nc(=S)n(-c2ccccc2)c1C
0.01	0.16	Cc1oc2cc3oc(=O)c(CC(=O)N[C@@H](C)C(=O)NC(Cc4ccc(Cl)cc4)C(=O)O)c(C)c3cc2c1C (stereo partly specified)
0.11	-1.5	Cc1cc(C)nc(N/C(=N\S(=O)(=O)Cc2ccccc2)Nc2ccccc2Br)n1
1.1	0.06	O=C(c1ccc2oc(Cc3ccc(Cl)cc3)nc2c1)N1CC[C@H](O)C1
1.2	-0.58	NC(=O)CC(NC(=O)Cc1cccc2ccccc12)c1ccc(NCCN2CCCCC2)c([N+](=O)[O-])c1 (stereo unspecified)
0.92	0.52	O=C(O)CCC(NC(=O)c1cncc(O)c1)C(=O)O (stereo unspecified)
0.05	0	COCCn1nnnc1C(c1cc2ccc(OC)cc2[nH]c1=O)N1CCc2ccccc2C1 (stereo unspecified)
0.08	-0.96	Cc1nnnn1/C(=C\c1ccccc1)C(=O)OCC(=O)N(C)C1CCS(=O)(=O)C1 (stereo unspecified)
0.71	-1.2	C[C@H](NC(=O)c1nc[nH]c1C(=O)NCc1ccccc1)C(=O)OC(C)(C)C
0.58	1.3	O=C(NCCC(=O)N1CCCCC1)c1ccc(Br)cc1
0.81	-1.6	CCN(CC)C(=O)Cn1cnc2sc(C(=O)N3CCN(c4ccc(OC)cc4)CC3)c(C)c2c1=O
1.1	1.5	CCOc1ccc(-c2nnn(CC(=O)Nc3cc(OC)ccc3OC)n2)cc1OCC

(continued)
KCNQ2 enhance	KCNQ2 enhance baseline	SMILES
0.3	0.02	COc1cc(-c2c(C#N)c(N)nc3c2CCCC3)cc(OC)c1OC
1.7	-2	CCC(=O)n1nc(-c2ccc(OC)cc2)nc1N
0.22	-2.3	COc1ccc([N+](=O)[O-])cc1N(CC(O)CN1C(=O)NC(C)(C)C1=O)S(=O)(=O)c1ccccc1 (stereo unspecified)
0.57	-0.06	Cn1cc(C(=O)N2CCc3ccccc3C2)c(=O)c2cc(S(=O)(=O)N3CCCCC3)ccc21
1.6	-0.13	CC1(C)Cc2nc3[nH]c(=S)[nH]c(=O)c3cc2CO1
0.03	-0.05	Cc1ccc(OCCn2cc(C#N)c3ccccc32)cc1
0.73	-0.72	COc1cc(CNC(=O)c2cc3ccccc3oc2=O)cc(OC)c1OC
0.7	0.14	CC(C)NC(=O)CN(C(=O)CCC(=O)Nc1nccs1)c1ccc(C(C)C)cc1
0.12	-0.45	O=C(O)c1ccccc1-c1ccccc1C(=O)NNc1ccc([N+](=O)[O-])cc1
0.2	0.01	CC1=C(C(N)=O)C(c2ccccn2)n2nc(SCc3ccccc3Cl)nc2N1 (stereo unspecified)
0.03	-0.75	CCOc1ccc(Cl)cc1/C=N/NC(=O)c1ccccc1
0.1	-1.6	CC1=CC(C)(C)[N+](C)=CN1c1ccccc1
0.23	0.62	CCCc1cc(=O)n2c(nc3ccccc32)[nH]1
1.2	0.05	COC(=O)c1cc(COc2ccc3c4c(c(=O)oc3c2)CCC4)c(C)o1
0.11	0.23	O=C(NCc1cccnc1)C(=O)NCC1OCCCN1S(=O)(=O)c1ccccc1 (stereo unspecified)
0.7	-0.83	COc1ccc2ccccc2c1/C=N/NC(=S)Nc1cc(S(=O)(=O)N2CCOCC2)ccc1N1CCOCC1
0.2	0.93	CCc1cccc(C)c1NC(=S)NCC(c1cccnc1)N1CCOCC1 (stereo unspecified)
1.1	-0.51	Cc1cc(C(=O)NCc2ccc(S(N)(=O)=O)cc2)cs1
1.1	-0.95	C/C(=N\Nc1nc(-c2ccccc2)cs1)c1cccs1
0.33	0.03	O=C(O)Cc1cn(-c2ccccc2)nc1-c1ccccc1
0.56	0.01	Cc1nn(CC(=O)NCCCN2CCCCC2)c(=O)c2cccn12
0.94	0.96	COC(=O)c1ccc(C2/C(=C(/O)c3ccc(OC)cc3)C(=O)C(=O)N2CC2CCCO2)cc1 (stereo unspecified)
0.01	-0.42	C#CCOc1ccc(C2C3=C(CC(C)(C)CC3=O)N(CC(=O)O)C3=C2C(=O)CC(C)(C)C3)cc1OC
0.79	0.2	COc1ccc(OCC(O)CN2CCN(c3ccc(Cl)cc3)CC2)cc1 (stereo unspecified)
1.1	0.2	Cn1c(=O)c2c(ncn2Cc2cccc(Cl)c2)n(C)c1=O
0.35	-0.17	Cc1cc(C)nc(SCC(=O)N/N=C/c2cccn2-c2ccc(O)cc2)n1
1.8	0.04	COc1ccccc1CCC(=O)Nc1ccc2c(c1)CN(Cc1ccc(C)o1)CC2
